Compound activity deposited in PubChem by several laboratories.
GALR2 agonist: GALR2 (human) receptor agonism | activation, %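 (tested at 5 µM)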 | actives 0.48% (n = 140,000) | GALR2-expressing cells, agonist activation read-out | AID 803 | O43603;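 active = above mean plus 3 SD of all compounds, about 5% in these data, not always enough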;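 note: 0% = vehicle buffer wells and 100% = reference agonist at full effect; tested in CHO reporter cells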
Target sequence (O43603 whole entry, looked up): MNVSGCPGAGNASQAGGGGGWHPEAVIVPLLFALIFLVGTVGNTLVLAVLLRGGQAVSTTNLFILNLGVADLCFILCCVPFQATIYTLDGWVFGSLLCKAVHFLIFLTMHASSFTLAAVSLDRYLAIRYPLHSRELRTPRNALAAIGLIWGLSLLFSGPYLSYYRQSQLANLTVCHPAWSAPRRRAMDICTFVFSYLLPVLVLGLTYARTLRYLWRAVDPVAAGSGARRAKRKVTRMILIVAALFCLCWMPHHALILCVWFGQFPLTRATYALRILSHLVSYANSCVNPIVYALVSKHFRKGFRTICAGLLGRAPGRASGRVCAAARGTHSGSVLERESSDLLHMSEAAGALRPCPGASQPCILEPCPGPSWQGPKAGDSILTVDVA
PKD1 kinase inh: PKD1 (human) kinase inhibition. Q15139. PKD1 kinase fluorescence polarization assay. inhibition, %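 (about 10 µM by stock and volumes)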. actives 0.056% (n = 200,000);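 active = inhibition of 50% or more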;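 note: controls were vehicle for no effect and a reference inhibitor for full effect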
HSV augment: HSV replication enhancement; actives 0.005% (n = 220,000); maximum fold increase; HSV replication augmentation in cells, fold increase;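 active = peak rise of 1.5-fold or more in the series; tested in PC3 cells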;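 note: first round at 10 µM; read as green reporter fluorescence; hits show the peak of a series up to 25 µM; 1 = signal of infected wells without compound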
Insulin prom inh: TRM-6 insulin promoter activity inhibition; TRM-6 cells (human fetal islet line), insulin promoter-eGFP reporter, imaging; reporter expression induced with tamoxifen; inhibition, % at 2 µM; actives 0.9% (n = 130,000); AID 1273;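 active = inhibition above the mean plus 3 SD, with well images judged a real hit on visual review, cut at about 60% in these data, passing the limit was not always enough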
RGS16-Gao HTS: RGS16-Galphao interaction regulator (human). bead-based flow cytometry RGS16-Galphao binding, fluorescence; actives lie on both sides. binding response (% of control), % at 10 µM. actives 0.38% (n = 220,000);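 active = below 25% or above 175%, edge rows of some plates excepted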;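 note: Galphao activated by GDP with aluminum fluoride before binding; 100% = wells without compound and 0% = beads without RGS; some results beyond the cut were filed as inactive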
Target sequence (O15492 whole entry, looked up): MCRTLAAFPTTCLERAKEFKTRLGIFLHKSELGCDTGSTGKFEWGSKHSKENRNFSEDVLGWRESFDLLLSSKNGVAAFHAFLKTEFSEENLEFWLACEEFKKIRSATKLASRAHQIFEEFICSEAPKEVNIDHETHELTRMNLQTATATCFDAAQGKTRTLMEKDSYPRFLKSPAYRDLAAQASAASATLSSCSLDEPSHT
Target sequence (P09471 whole entry, looked up): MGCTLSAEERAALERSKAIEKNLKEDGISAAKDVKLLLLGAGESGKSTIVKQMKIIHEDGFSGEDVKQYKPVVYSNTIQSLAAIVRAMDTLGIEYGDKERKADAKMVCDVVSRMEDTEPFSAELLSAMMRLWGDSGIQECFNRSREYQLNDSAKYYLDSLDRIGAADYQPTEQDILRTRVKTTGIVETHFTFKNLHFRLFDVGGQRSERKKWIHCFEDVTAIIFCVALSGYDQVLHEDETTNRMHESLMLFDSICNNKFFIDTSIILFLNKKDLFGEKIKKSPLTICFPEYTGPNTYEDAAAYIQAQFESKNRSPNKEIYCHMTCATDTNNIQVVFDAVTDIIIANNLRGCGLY
Insulin prom inh cell count: second read-out of Insulin prom inh, no call of its own (marks repeat the call); normalized cell count, %; measured here: cell count, toxicity; reference of the scale not given here;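 cells exposed to compound for 48 h; stained nuclei by imaging scaled within each plate; lower means fewer cells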
HSV augment primary fold: further read-out of HSV augment, marked with its call; fold increase; compound at 10 µM; measured here: primary screen fold increase 10 uM; tested in PC3 cells;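 GFP signal in the first replicate; 1 = infected wells without compound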
Starred values were filed as active, the others as inactive; i = inactive; . = no result given.

SMILES	GALR2 agonist	PKD1 kinase inh	HSV augment	HSV augment primary fold	Insulin prom inh	Insulin prom inh cell count	RGS16-Gao HTS
O=C(Cn1cnc2ccccc2c1=O)Nc1nnc(SCc2ccccc2)s1	-1.0	-8	i	0.78	.	.	106
COc1ccc(C)cc1NC(=O)C(OC(=O)CNC(=O)c1cccc(F)c1)c1ccccc1 (centres undefined)	-0.5	9	i	1.1	.	.	104
CCc1nnc(NC(=O)C(=O)NCCOC(=O)c2ccccc2)s1	-3.0	-2	i	0.73	22	102	96
c1cc2c(cc1-n1cnnn1)OCO2	.	-3	i	0.96	-11	98	99
O=C(CN1C(=O)C2CCCCC2C1=O)OCC(=O)c1ccc(Cl)s1 (centres undefined)	.	-1	i	0.91	36	85	117
COCCCNC(=O)c1c[nH]c2ccc(S(=O)(=O)N3CCC(C)CC3)cc2c1=O	.	7	i	1.1	.	.	98
O=S(=O)(NCCC(c1ccc(F)cc1)c1ccco1)c1ccccc1 (centres undefined)	-1.1	-9	i	0.96	-41	99	97
O=C(OCCN1CCOCC1)c1cccs1	-1.9	-7	i	1.1	-9	158	103
CCn1c(=NC(=O)CSC(C)=O)sc2cc(F)ccc21	-1.4	0	i	0.97	-79	61	100
O=C(O)c1ccccc1-n1cccc1C(=O)O	.	.	i	0.95	.	.	109
CC(=O)Nc1ccc(NC2(C)C(=O)c3ccccc3C2=O)cc1	-3.0	-11	i	0.94	21	158	108
CCC(C)Sc1nc2c(cnn2-c2ccc(C)c(C)c2)c(=O)[nH]1 (centres undefined)	-0.6	1	i	0.87	.	.	107
OCCNNC(=S)NC1CC2C=CC1C2 (centres undefined)	.	.	i	1.1	.	.	101
CCN(CC)S(=O)(=O)c1cccc2cccnc12	-0.5	2	i	0.89	-49	55	102
Cc1cc(C)c2c(=O)[nH]c(SCC(=O)NCc3ccccc3)nc2n1	-2.2	11	i	0.74	18	62	102
O=C(COC(=O)COc1ccc2ccccc2c1)Nc1cc(C(F)(F)F)ccc1N1CCOCC1	-0.9	-14	i	0.99	.	.	108
O=C(Cn1c(CN2CCCCC2)nc2ccccc2c1=O)NC1CCCCC1	-1.6	10	i	1	.	.	107
COc1ccc(N2CCN(C(=O)Cc3ccc(-n4c(=O)[nH]c5ccccc5c4=O)cc3)CC2)cc1	0.9	-5	i	0.83	3	78	145
c1ccc(CNC2=NCCCCC2)cc1	-0.8	-5	i	0.88	.	.	108
O=C(NC1CCCCCC1)C(=S)N1CCOCC1	.	-5	i	1	.	.	90
Cc1cc(C)nc(Nc2n[nH]c(-c3ccccc3Br)n2)n1	-0.7	-10	i	0.57	-150	79	94
CCOC(=O)N1CCC(NC(=O)CSCc2cnn(-c3ccccc3)c2-n2cccc2)CC1	-0.2	-4	i	1.1	21	64	103
CCNC(=O)CC1C(=O)N(c2ccc(C)cc2)C(=O)N1CCc1ccc(OC)c(OC)c1 (centres undefined)	0.4	-1	i	0.79	16	140	122
O=C1/C(=C/c2cccnc2)CC/C1=C\c1cccnc1	.	6	i	0.92	-60	136	95
CN(C)S(=O)(=O)c1ccc(/C(O)=C2/C(=O)C(=O)N(Cc3cccnc3)C2c2cccs2)cc1 (centres undefined)	.	-5	i	1.2	.	.	97
COc1ccc(CNC(=O)Cc2ccc(OC)c(S(=O)(=O)N3CCOCC3)c2)cc1	-0.9	0	i	0.99	-33	93	117
CCOc1ccc2[nH]c(=S)[nH]c2c1	-2.5	12	i	1	40	26	103
COc1ccc(/C(C)=N/OCC(=O)N=Nc2c(O)[nH]c3ccccc23)cc1	-1.1	10	i	0.95	6	118	97
Clc1ccc(Cn2ncc3c(NCc4ccco4)ncnc32)c(Cl)c1	-1.3	-2	i	0.79	.	.	106
CN(C)CCCOC(=O)c1sc2ccccc2c1Cl	.	2	i	0.92	.	.	104

Profiles, looked up by structure.
Profile of Clc1ccc(Cn2ncc3c(NCc4ccco4)ncnc32)c(Cl)c1 : GALR2 agonist = -1.3; PKD1 kinase inh = -2; HSV augment = i; HSV augment primary fold = 0.79; Insulin prom inh = .; Insulin prom inh cell count = .; RGS16-Gao HTS = 106
Profile of O=C1/C(=C/c2cccnc2)CC/C1=C\c1cccnc1 : GALR2 agonist = .; PKD1 kinase inh = 6; HSV augment = i; HSV augment primary fold = 0.92; Insulin prom inh = -60; Insulin prom inh cell count = 136; RGS16-Gao HTS = 95
Profile of O=C(Cn1c(CN2CCCCC2)nc2ccccc2c1=O)NC1CCCCC1 : GALR2 agonist = -1.6; PKD1 kinase inh = 10; HSV augment = i; HSV augment primary fold = 1; Insulin prom inh = .; Insulin prom inh cell count = .; RGS16-Gao HTS = 107

(cont.)
SMILES	GALR2 agonist	PKD1 kinase inh	HSV augment	HSV augment primary fold	Insulin prom inh	Insulin prom inh cell count	RGS16-Gao HTS
Cc1ccc(NC(=O)c2ccccc2Cl)c(Cl)c1	-2.4	-4	i	1.1	0	115	96
O=C(O)CN=C(NS(=O)(=O)c1ccc(Cl)cc1)c1ccccc1	-0.7	-5	i	0.82	-46	77	113
Cc1cccc(C)c1OC1(c2ccccc2)OC(=O)c2ccccc21 (centres undefined)	0.1	-2	i	1.1	19	104	98
O=C(O)c1n[nH]c2c1CCCC2	-1.4	-4	i	1.1	16	93	84
C/C(=N/NC(=O)c1ccoc1C)c1ccc(NC(=O)C2CCCC2)cc1	0.4	-11	i	0.95	7	139	106
CCCC(=O)NNC(=O)CC(=O)Nc1ccccc1C(=O)O	.	.	i	0.98	.	.	100
O=C(OCc1cccnc1)C1=Cc2ccccc2OC1	.	-8	i	1	-29	95	94
COCCOC(=O)C1=C(C)NC(=O)NC1/C=C/c1ccccc1 (centres undefined)	-0.3	0	i	1	50	95	104
CC(C)CCN1C(=O)c2ccc(C(=O)NCc3ccco3)cc2C1=O	-1.2	-2	i	0.98	19	151	100
CC(CNC(=O)C(C)C)NC(=O)C(C)C (centres undefined)	-2.0	-7	i	0.98	17	88	100
CC(=O)N1N=C(N)SC1c1cccc([N+](=O)[O-])c1 (centres undefined)	-1.4	1	i	0.98	.	.	92
C(=C\c1ccccc1)/C=N/Nc1nc2ccccc2[nH]1	-1.0	19	i	0.85	.	.	96
CC(=O)N/C(=C\c1ccc(F)cc1)C(=O)NC(C(=O)O)C(C)C (centres undefined)	.	-7	i	0.94	.	.	106
Cc1ccc(CSCC(=O)NCCCN2CCOCC2)cc1	.	-10	i	1.1	.	.	98
CCOC(=O)c1sc(NC(=O)c2cccs2)nc1C	-1.9	-17	i	0.76	23	133	102

Some of the entries so far, as a markdown table.
| Compound | GALR2 agonist | PKD1 kinase inh | HSV augment | HSV augment primary fold | Insulin prom inh | Insulin prom inh cell count | RGS16-Gao HTS |
| --- | --- | --- | --- | --- | --- | --- | --- |
| Cc1ccc(NC(=O)c2ccccc2Cl)c(Cl)c1 | -2.4 | -4 | i | 1.1 | 0 | 115 | 96 |
| O=C(O)CN=C(NS(=O)(=O)c1ccc(Cl)cc1)c1ccccc1 | -0.7 | -5 | i | 0.82 | -46 | 77 | 113 |
| Cc1cccc(C)c1OC1(c2ccccc2)OC(=O)c2ccccc21 (centres undefined) | 0.1 | -2 | i | 1.1 | 19 | 104 | 98 |

(list continues)
SMILES	GALR2 agonist	PKD1 kinase inh	HSV augment	HSV augment primary fold	Insulin prom inh	Insulin prom inh cell count	RGS16-Gao HTS
CC(c1cccs1)N(Cc1ccco1)C(=O)Nc1ccc(Cl)c(Cl)c1 (centres undefined)	-2.9	3	i	0.67	-40	103	100
CCNC(=O)n1cc(-n2cncn2)c(-c2ccccc2)n1	.	-6	i	0.93	-25	130	94
COCCOC(=O)c1c(NC(=O)CNc2ccc(C)c(F)c2)sc(C(N)=O)c1C	.	.	i	0.77	.	.	99
Clc1ccc(Cn2ncc3c(NCc4ccccc4)ncnc32)c(Cl)c1	0.3	4	i	0.65	-6	103	101
Cc1cc(C(=O)NN)c2cc(Br)ccc2n1	-0.9	-3	i	0.6	-87	40	97
CCC(=O)Nc1cccc(NC(=S)NC(=O)c2ccc(Cl)cc2)c1	-2.2	-3	i	1	.	.	99
Cc1ccc(C(=O)NCC(=O)O)s1	.	-3	i	1	-11	133	104
COc1ccc(NC(=O)c2cnc3sccn3c2=O)cc1	0.3	-10	i	0.84	.	.	102
Cc1cccc(C(=O)NC(=S)Nc2ccc(N3CCOCC3)cc2)c1	-0.5	-2	.	.	-8	47	37
CCSc1cnn(-c2ccccc2)c(=O)c1SCC	0.0	-5	.	.	-8	106	100
N#Cc1c(NC(=O)COC(=O)C2CC3C=CC2C3)oc(-c2ccccc2)c1-c1ccccc1 (centres undefined)	-2.8	-6	i	1	47	155	100
CC(=O)Nc1cc[n+](CC(=O)c2ccc(Cl)cc2)cc1	.	.	i	1.1	.	.	104
CCn1c(SCc2nc3ccccc3[nH]2)nnc1-c1ccccc1OC	-2.8	-5	i	0.98	.	.	100
O=C1C(=O)N(CCN2CCOCC2)C(c2ccccn2)/C1=C(/O)c1ccc(F)cc1 (centres undefined)	0.8	-1	i	1.1	50	136	91
Cn1ccnc1SCC(=O)Nc1cc(S(=O)(=O)N2CCOCC2)ccc1Cl	-0.7	-7	i	0.84	-46	136	103

Some values from the entries so far:
Cc1cccc(C(=O)NC(=S)Nc2ccc(N3CCOCC3)cc2)c1 in Insulin prom inh = -8
Cc1cc(C(=O)NN)c2cc(Br)ccc2n1 in RGS16-Gao HTS = 97

(continued)
SMILES	GALR2 agonist	PKD1 kinase inh	HSV augment	HSV augment primary fold	Insulin prom inh	Insulin prom inh cell count	RGS16-Gao HTS
CC(=O)N1N=C(c2ccccc2)OC1(C)CC(=O)Nc1ccccc1 (centres undefined)	-0.3	0	i	1	.	.	109
COc1ccc(S(=O)(=O)Nc2ccc3ccccc3c2)cc1C	-1.8	2	i	0.93	6	92	105
Cc1c(NC(=O)/C=C/c2cccs2)c(=O)n(-c2ccccc2)n1C	-3.4	3	i	0.91	-11	122	106
N#CC(C(=O)O)=C1CCCC1	-0.3	8	i	1.1	.	.	100
N#Cc1ccc2ccn(CC(=O)NC3CCCCC3)c2c1	-2.0	-3	i	0.78	64	23	100
Cc1nc2ccccn2c1C(=O)CSc1ccc(Cl)cc1Cl	-0.1	4	i	0.8	36	102	92
COc1cc(/C=N/NC(=O)c2cnccn2)ccc1O	-0.4	1	i	1.1	63	130	92
Cc1ccnc(N2CCC(C(=O)Nc3ccc4c(c3)OCO4)CC2)n1	-3.4	1	i	0.9	15	103	108
c1ccc(CCn2nnnc2C(c2cccs2)N2CCN(Cc3ccc4c(c3)OCO4)CC2)cc1 (centres undefined)	-1.1	-3	i	0.98	-61	59	66
COc1ccccc1-c1nnc(SCC(=O)N2CCOCC2)n1-c1ccccc1	-3.2	-8	i	0.94	-66	83	99
CCOc1ccc(/C=C/C(=O)c2ccc(-c3ccccc3)cc2)cc1	-1.5	2	i	1.1	.	.	100
CCOC(=O)c1c(NC(=O)N/N=C/c2ccc(O)c(OC)c2)sc(C(C)=O)c1C	.	.	i	1	.	.	128
COc1ccc(C(=O)n2cnc(N)n2)cc1	-1.3	-17	i	0.92	18	102	93
Cc1ccc(NC(=O)C2(S(=O)(=O)c3ccc(C)cc3)CC2)cc1	-0.6	-3	i	1.1	-25	130	107
O=C(COC(=O)c1ccc(S(=O)(=O)Nc2ccccc2)cc1)NCCC1=CCCCC1	-0.7	-14	i	0.94	.	.	101
COc1ccccc1N1CCN(C(=O)Cn2c(=O)[nH]c3ccsc3c2=O)CC1	-2.4	4	i	0.98	-23	77	102
O=C(Nc1ccccc1)C1C2/C=C\CCCCC21 (centres undefined)	.	2	i	0.9	-12	153	103
Cc1ccc(C(=O)Oc2ccc(N3C(=O)CCC3=O)c(C)c2)cc1	.	-5	i	0.87	.	.	100
O=C(Cc1ccc(Cl)cc1)NC(=S)Nc1ccccc1N1CCOCC1	2.6	-3	i	0.92	.	.	95
CC(=O)OC(C(=O)NC1CCCCC1)c1ccc(Cl)cc1 (centres undefined)	-2.0	-9	i	0.93	-30	71	101
O=C(NCc1cccs1)C1CCCN1C(=O)Nc1cccc(Cl)c1 (centres undefined)	.	-3	i	0.99	-60	100	99
Cc1cc(N2CCCC2=O)cc(C)c1S(N)(=O)=O	-3.5	-10	i	0.83	-36	118	100
CSc1ccccc1C(=O)Nc1ccccc1C	.	5	i	1.1	.	.	101
O=C(O)CCC(=O)Nc1ccc(Br)c(Cl)c1	-1.3	-1	i	1	2	52	110
